From PubChem
Menin MLL FP FL: qHTS Assay for Inhibitors Targeting the Menin-MLL Interaction in MLL Related Leukemias: Competition With Fluorescein Labeled MLL-derived Peptide; Fluorescence polarization, fluorescein-MLL peptide displacement from menin; FP activity change, % at 61.4 µM; 290,000 tested, under 10 active; AID 1766, 2009; inconclusive = falling polarisation curve, or a change in total fluorescence; inactive = total fluorescence flat and polarisation flat or rising; no compound was filed as active; the % refers to the polarisation; negative = inhibition;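 also: % of control where 0% means no effect; inhibitors lower the polarisation; unlabelled MLL peptide was the positive control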
TRPML1 ag: qHTS for Agonists of the Human Mucolipin Transient Receptor Potential 1 (TRPML1); TRPML1-expressing cells, Ca2+ dye fluorescence, FDSS; host cell line not named in the record; reference of the full effect not given here; activation, % (no concentration beside the values); actives 0.12% (n = 410,000); in the data active = activation above about 50%; inconclusive = about 30% to 50%; inactive = below about 30%; also: 0% is about no effect; the text of the record puts the active cut at 80%
Target sequence (Q9GZU1 whole entry, looked up): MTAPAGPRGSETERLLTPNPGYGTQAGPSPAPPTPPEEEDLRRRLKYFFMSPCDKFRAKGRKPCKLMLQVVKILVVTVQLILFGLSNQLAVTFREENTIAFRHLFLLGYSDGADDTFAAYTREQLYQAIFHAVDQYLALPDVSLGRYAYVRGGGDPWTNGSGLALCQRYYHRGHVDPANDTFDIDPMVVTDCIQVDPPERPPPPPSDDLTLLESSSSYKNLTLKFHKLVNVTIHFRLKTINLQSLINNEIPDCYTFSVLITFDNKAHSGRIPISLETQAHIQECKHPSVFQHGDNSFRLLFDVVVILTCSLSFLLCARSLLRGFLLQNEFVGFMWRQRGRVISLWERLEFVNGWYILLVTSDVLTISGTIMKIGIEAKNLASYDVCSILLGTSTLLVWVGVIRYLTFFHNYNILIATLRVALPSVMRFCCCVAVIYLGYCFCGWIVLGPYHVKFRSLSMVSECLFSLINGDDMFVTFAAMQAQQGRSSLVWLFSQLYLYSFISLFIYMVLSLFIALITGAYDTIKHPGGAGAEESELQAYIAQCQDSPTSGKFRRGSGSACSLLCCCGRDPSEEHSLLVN
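TRPML1-DL cells, Tet-induced overnight (~16 h, 37 degrees C), loaded 45-90 min at room temperature with Ca8 no-wash calcium dye plus quencher. FDSS fluorescence: 10 s baseline, compound pin-transfer, 110 s agonist read, then EC80 54-4 (4uM final) and 110 s antagonist read.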
gsp antagonist: qHTS for Antagonists of gsp, the Etiologic Mutation Responsible for Fibrous Dysplasia/McCune-Albright Syndrome: qHTS. Potency, µM (doses to about 76.9 µM), for the others: top-dose activity change, negative = inhibition, hits mostly inhibitors. actives 0.4% (n = 340,000). gsp-mutant cells, cAMP HTRF, 30 min; control for the full effect not named in the record; active = falling curve of any shape with a large fitted effect; inconclusive = falling curve, mostly with a smaller effect; inactive = flat or rising curve; cell line not stated here;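 also: intracellular cAMP measured with PDE inhibitor Ro 20-1724 present during compound exposure; potency is read from the fitted curve at half-maximal effect; % is scaled to controls: 0 for no effect and ±100 for the full control effect; nearly all actives have a fitted effect of over 65% in size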
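G418-selected cells were plated in DMEM/10% FBS for 16-24 h at 37C, then treated with compounds plus the PDE inhibitor […] (300 uM solution added) for 30 min at 37C. Intracellular cAMP was measured by HTRF after 30 min lysis at room temperature.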
TRPML1 inh: qHTS for Inhibitors of the Human Mucolipin Transient Receptor Potential 1 (TRPML1); actives 0.02% (n = 390,000); activity change, negative = inhibition, % (concentration not given with the values); AID 624415, 2012; TRPML1-inducible cells, Ca2+ dye fluorescence, FDSS; hits give low values; inhibition of EC80 agonist-evoked calcium signal; Mucolipin-1 (Homo sapiens), Q9GZU1; in the data active means activity change below about -50%; inconclusive means about -30% to -50%; inactive means above about -30%;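 also: stimulus is agonist 54-4 at its EC80 concentration; % is scaled to controls: 0 for no effect and ±100 for the full control effect; compound concentration not given in the record; the text of the record puts the active cut at -80%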
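Tet-induced TRPML1-DL cells loaded with Ca8 no-wash calcium dye were read kinetically on FDSS. Compound addition was followed by EC80 agonist 54-4 (4 uM final); inhibition was read over 110 s.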
ClpP mod: qHTS Assay for Activators of ClpP; ATP-dependent Clp protease proteolytic subunit (Bacillus subtilis (strain 168)), P80244; purified B. subtilis ClpP, FRET peptide cleavage, 20 min; Potency, µM (top dose mostly 57.5 µM), without a hit: at the highest dose activity change, negative = active; actives 1.9% (n = 340,000); AID 651965, 2013; active = well fitted falling curve with a large enough effect; inconclusive = small, poorly fitted or top-dose-only effect; inactive = no such curve, though single readings can be large or run the other way; also: potency is read from the fitted curve at half-maximal effect; the source files actives as falling curves though it sought activators and does not explain the sign; nearly all actives have a fitted effect of over 65% in size; many hits overshoot -100%
Target sequence (P80244 whole entry, looked up): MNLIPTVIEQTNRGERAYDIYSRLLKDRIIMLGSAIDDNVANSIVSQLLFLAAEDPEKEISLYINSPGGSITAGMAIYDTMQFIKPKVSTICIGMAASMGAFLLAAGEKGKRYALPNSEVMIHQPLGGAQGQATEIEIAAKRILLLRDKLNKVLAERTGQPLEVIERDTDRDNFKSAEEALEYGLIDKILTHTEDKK
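ClpP 10 microg/mL final, pH 8 Tris/KCl buffer with BSA, glycerol, Tween-20; compound pinned in; FRET-FV substrate; RT 20 min; Ex320/Em430; ΔFRET vs ADEP 5.8 microM, DMSO, no enzyme.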
gsp agonist: qHTS for Agonist of gsp, the Etiologic Mutation Responsible for Fibrous Dysplasia/McCune-Albright Syndrome: qHTS | gsp mutant cells, cAMP HTRF, 30 min; control for the full effect not named in the record | Potency, µM (titrated, usually from 76.9 µM), for inactives: at the highest dose activation (cAMP increase), most hits filed as activators | actives 0.13% (n = 340,000); active = well fitted activation curve with a large enough effect; inconclusive = small, poorly fitted or top-dose-only effect, or another doubt; inactive = no such curve, though single readings can be large or run the other way; cell line not stated here;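 also: phosphodiesterase inhibitor Ro 20-1724 added with compounds to block cAMP breakdown; potency is read from the fitted curve at half-maximal effect; nearly all actives have a fitted effect of over 60% in size; about a fifth of the inactives were tested at one dose only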
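Cells in DMEM/10% FBS with G418 were pretreated with compounds in DMSO plus […] (300 uM stock) for 30 min at 37C. cAMP was measured by HTRF (cAMP-d2 plus anti-cAMP antibody-K) after 30 min at room temperature.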
Numbers without * were called inactive; ? = inconclusive; / = no result given; & = joins results of further samples; [ ] = remark or other dose.

Under each structure – ClpP mod	gsp agonist	TRPML1 inh	Menin MLL FP FL	gsp antagonist	TRPML1 ag
- Cc1cccc(NC(=O)CN(CC2CCCO2)C(=O)c2oc3ccccc3c2C)c1C (centres undefined)
→ 2.2%	4%	-1	/	-12%	0.7
- Cc1ccc(O)c(C(=O)CC(=O)c2ccc(Cl)cc2)c1
→ -2.8%	20%	-11	-4.4	-4%	4.6
- COc1cc2ccccc2cc1C(=O)Nc1ccccc1N1CCN(S(C)(=O)=O)CC1
→ ?	12%	2	1.8	-14%	0.0
- CCc1ccc(-c2nc(CSCC(=O)NCc3ccco3)c(C)o2)cc1
→ /	-5%[15.4 µM]	12	0.1	-8%	0.7
- CCN1C(=NCc2ccco2)N[C@@H](c2cccc(C(F)(F)F)c2)C(C(=O)OC)=C1C
→ -3.5%	?	17	3.2	5%	-0.5
- Cc1ccccc1NC(=O)c1nn(-c2ccc(F)c(F)c2)ccc1=O
→ -3.9%	8%	-2	0.4	7%	0.0
- CC(=O)Nc1ccc(S(=O)(=O)N2CCSCC2)cc1
→ -0.3%	-19%	13	1.1	9%	1.0
- CC(C)(C)OC(=O)N1CCC(c2c(C(=O)NC3CCCCC3)cnn2-c2cccc(F)c2)CC1
→ -8.2%	/	2	/	/	-0.5
- Cc1cc(NCc2cccnc2)nc(N)n1
→ -1.3%	21%	-7	-0.1	6%	0.5
- O=C(NCc1ccc(Cl)cc1)c1cccc(S(=O)(=O)N2CCCC2)c1
→ 2.0%	-6%	-6	/	-20%	-0.1
- N=c1oc2ccccc2cc1C(=O)Nc1cccc(F)c1
→ -8.2%	?	4	2.5	-13%	0.5
- CN1C(=O)S/C(=C/c2cccnc2)C1=O
→ 0.7%	-3%	-2	-0.4	4%	-0.7
- Cc1cccc(C(=O)NN(C)c2nc(-c3ccccc3)nnc2C(F)(F)F)c1
→ -1.8%	-24%	16	8.0	6%	0.0
- COC(=O)CCC(=O)Nc1ccc(S(=O)(=O)Nc2nc(C)cc(C)n2)cc1
→ 1.7%	0%[15.4 µM]	3	0.9	13%	0.5
- COc1ccc(-c2noc3c2-c2nc(-c4cccc(C)c4)sc2CC3)cc1
→ ?	/	-2	3.2	2%	0.1
- Oc1ccc(N=Cc2ccc(OCc3ccccc3)cc2)cc1
→ 0.7%	-6%	10	-1.3	-7%	2.2
- CCCNC(=O)C1Cc2cc(S(=O)(=O)N3CCCC3)ccc2N1C(C)=O (centres undefined)
→ 1.3%	11%	-4	/	4%	-0.3
- Cc1cc(=O)n2nc(N3CCCC(C(=O)NCc4cccc(Br)c4)C3)sc2n1 (centres undefined)
→ -0.1%	44%	-7	-1.0	-10%	-1.3
- O=C(CSc1nc2cc(Cl)ccc2o1)NC1CC1
→ 0.6%	12%	-9	/	-6%	-0.6
- O=C(C1CCN(S(=O)(=O)c2ccc(F)cc2)CC1)N1CCOCC1
→ -2.0%	-30%	18	-1.2	6%	0.8
- C=CCNC(=O)c1onc(CCl)c1C(=O)OC
→ -1.5%	/	-10	-1.8	2%	0.0
- O=C(Nc1ccc(CN2CCOCC2)cc1)c1cc2ccccc2o1
→ -0.1%	0%	15	1.3	-16%	0.7
- COc1ccc(OCC(=O)N(Cc2cccs2)c2ccc(OC)cc2)cc1
→ 0.3%	/	11	/	/	0.9
- COc1ccc(N2CC(C(=O)Nc3ccccc3N3CCCC3)CC2=O)c(OC)c1 (centres undefined)
→ -8.9%	-15%	2	/	-2%	0.3
- COc1ccc(CC(=O)N(CCC2=CCCCC2)c2c(N)n(Cc3ccccc3)c(=O)[nH]c2=O)cc1OC
→ -0.9%	5%	8	/	-5%	0.8
- CSc1nc(-c2ccco2)nn1C(=O)c1ccco1
→ 1.4%	5%	-15	3.9	-3%	0.4
- COc1cccc(OCC(=O)Nc2ccccc2NC(C)=O)c1
→ 1.6%	15%[15.4 µM]	-10	-0.6	-2%	1.2
- CC(C)CN1C(=O)c2ccccc2C1(O)Cc1ccccc1 (centres undefined)
→ -4.0%	22%	22	0.9	6%	2.9
- COc1ccccc1NC(=O)Cn1cncc1-c1ccc([N+](=O)[O-])cc1
→ 1.2%	-11%	-11	5.4	-16%	3.5
- COC(=O)CSc1ncnc2c(C)csc12
→ /	?	-1	1.8	-1%	1.2
- Cc1noc(C)c1C(=O)Nc1ccc2c(c1)CCC2
→ -1.4%	-18%	4	3.7	-2%	0.7
- O=C(O)CCc1ccc(-c2cccs2)n1NC(=O)c1ccccc1Br
→ -0.8%	18%	2	8.4	-21%	-0.6
- Cc1ccc(NC(=O)CN2C(=O)C(c3ccc(C)cc3)=NC23CCCCCC3)cc1
→ -1.4%	/	-11	/	/	3.7
- COc1ccc(-c2c(C)nn3c(C(F)(F)F)cc(C)nc23)cc1OC
→ 2.0%	/	-2	/	/	0.3
- COc1ccc(C(=O)O/N=C(/c2cccs2)C(C)(C)C)cc1
→ -1.3%	19%	14	3.2	-7%	0.9
- O=C(Nc1ccc(N2CCCCCC2)cc1)c1ccc[nH]1
→ 1.3%	?	-5	/	-4%	-0.5
- O=c1[nH]c2ccccc2c(O)c1O
→ -1.6%	/	/	-5.0	-2%	/
- Cc1ccccc1CSc1nccn1-c1ccccc1
→ -1.1%	23%	62	-8.3	-6%[15.4 µM]	2.5
- Cc1ccc(CNS(=O)(=O)c2ccc(C(=O)N(C)C)s2)cc1
→ 0.8%	/	-4	/	/	-0.8
- CCOc1ccc(-c2cc(C(=O)N3CCCC3)c3ccccc3n2)cc1
→ 14µM*	-1%	4	/	16%	0.0
- CCOC(=O)N1CCN(c2c(NCCCN(CC)c3cccc(C)c3)c(=O)c2=O)CC1
→ -2.4%	-1%	-3	5.0	-22%	2.5
- COC(=O)c1ccccc1NC(=O)NCc1ccccc1
→ 3.7%	42%	-7	-6.2	9%	1.4
- COc1ccccc1CN(C)C[C@H]1OCc2cnnn2CCCC(=O)N([C@H](C)CO)C[C@@H]1C
→ -0.4%	-8%	4	/	/	-0.3
- COc1cccc(-c2coc3cc4oc(=O)c(CC(=O)O)c(C)c4cc23)c1
→ -13%	-39%[inhibitor]	-19	7.2	-17%	0.5
- CC(=O)Nc1ccc(C2=NN(Cc3nnc(-c4ccccc4)o3)C(=O)SC2)cc1
→ 1.0%	17%	-15	3.0	10%	0.0
- NC(=O)NC(=O)COC(=O)c1cccc(NS(=O)(=O)/C=C/c2ccccc2)c1
→ 1.8%	-21%	1	-4.8	0%	0.0
- O=C(c1cccc(F)c1)N1CCN(c2cccc(C(F)(F)F)c2)CC1
→ -3.5%	11%	-2	1.3	?	6.6
- CCOC(=O)Cc1nnc(NC(=O)c2ccccc2OC)s1
→ -5.0%	-9%	7	2.6	7%	0.7
- Cc1ccc(C)c(Cn2nc(-c3cc(C)ccc3C)ccc2=O)c1
→ 0.4%	-39%[inhibitor][15.4 µM]	33&13	4.9	-5%	4.8&-0.1
- CCN(c1ccccc1)S(=O)(=O)c1cccc(C(=O)NCC(c2ccc(F)cc2)N2CCOCC2)c1 (centres undefined)
→ /	-16%[15.4 µM]	20	/	-26%	-0.1
- Cc1ccc(C(=O)CC(=O)c2cc(Cl)ccc2O)cc1
→ 9.3%	?	4	3.3	?	-0.1
- COc1ccc(-n2c(CSc3nc(C)cc(C)n3)nnc2SCC(=O)Nc2nccs2)cc1
→ 0.5%	-21%	16	1.2	8%	-1.2
- C#CCOCCOCCOCCNc1nc(N2CCN(C(=O)Cn3cc(CCO)nn3)CC2)nc(N2CCN(C(=O)[C@H](C(C)C)n3cc(CCO)nn3)CC2)n1
→ -1.3%	/	4	-1.9	9%	-0.1
- O=C(Nc1ccc(N2CCOCC2)nc1)c1ccc(F)cc1
→ -1.2%	5%	20	-17	-1%	-0.3
- COc1ccc(CCNC(=O)NS(=O)(=O)c2ccc(C)cc2)cc1OC
→ -1.2%	5%[15.4 µM]	0	0.0	5%	-0.6
- CCOc1ccc(C(C)=O)cc1COc1ccc(C)nc1[N+](=O)[O-]
→ /	22%	18	-11	-12%	2.0
- O=C(CN(Cc1ccco1)C(=O)c1ccc([N+](=O)[O-])cc1)Nc1ccccc1C(F)(F)F
→ -0.4%	19%	-4	/	-1%	-0.6
- CCSC(=S)c1c(C)[nH]n(-c2ccccc2)c1=O
→ 1.6%	6%[15.4 µM]	40	2.9	-12%	-0.6
- CCCC(C)NC(=O)COC(=O)c1ccc2c(c1)C(=O)N(Cc1ccco1)C2=O (centres undefined)
→ /	-6%[15.4 µM]	4	-7.4	3%	-0.5
- C=CC(O)Cc1c(C)n[nH]c1C (centres undefined)
→ -2.2%	7%	-7	-0.1	3%	0.2

Additional structures:
Under each structure – ClpP mod	gsp agonist	TRPML1 inh	Menin MLL FP FL	gsp antagonist	TRPML1 ag
- CCc1ccc(NC(=O)CSc2nc3nccnc3c(=O)n2CCc2c[nH]c3ccccc23)cc1
→ 3.1%	/	8	/	/	-0.8
- COc1ccc(CC(=O)NC(CC(=O)O)c2ccc(OC)cc2)cc1 (centres undefined)
→ 0.5%	7%	-5	1.7	6%	-0.3
- O=C1C(=O)C(c2ccccc2)C(=O)C1c1ccccc1 (centres undefined)
→ /	?	16	/	15%	-0.5
- CCC(C)(C)n1nnnc1C(c1cccnc1)N1CCCc2ccccc21 (centres undefined)
→ 3.1%	-16%	29	2.1	-3%	-0.5
- COc1ccc(/C=C/C(O)=C2/C(=O)N(C)C3(C)CC2c2ccccc2O3)cc1 (centres undefined)
→ ?	9%	67	2.0	-11%	1.8
- CCn1cc(S(=O)(=O)NCc2ccc3c(c2)OCO3)cn1
→ 0.7%	13%	-4	/	15%	0.2
- COc1cc(OC)c(NS(=O)(=O)c2ccc3c(c2)CCCN3C(C)=O)cc1Cl
→ -5.9%	/	12	/	/	0.2
- Cc1ccc(-n2nc(C)c(NS(=O)(=O)c3ccccc3)c2C)cc1C
→ -0.8%	4%	23	2.0	-18%	0.9
- COc1cccc(CNn2c(-c3cccc(C)c3)nc3ccccc3c2=O)c1
→ 0.4%	-59%[inhibitor]	-9	2.6	-15%	2.9
- O=S(=O)(Cc1ccc(Cl)cc1)c1ccccc1-c1nnc(-c2ccc(Cl)cc2)o1
→ 64%	-1%	82	2.6	-15%	1.2
- O=C(CN1CCN(c2ccc(F)cc2)CC1)Nc1nccs1
→ /	1%	-1	-2.5	0%	-0.3
